AID504770: growth inhibitors of E. coli YBA685 in a screen for V. cholerae RctB (chromosome II replication) inhibitors; E. coli YBA685 rctB-dependent plasmid, OD600 growth, 3 h; hits give low values; z-score (concentration not given with the values); hit rate 0.27% among 130,000; AID 504770;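 active = z-score under -2 on both plates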;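 note: wells of about 30 µL received 100 nL stock; score is relative to mean and SD of the test wells; the first replicate is given; strong numbers were not always called active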
CapD inh: blocks the Bacillus anthracis CapD enzyme; AID 492967; purified CapD enzyme, fluorescence intensity read-out; hits give low values; some hits fall short of the stated cut; hit rate 0.23% among 140,000; z-score (no concentration beside the values);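 active = z-score under -4 in either of two replicates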;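 note: stock transfer was 100 nL into about 40 µL; score is relative to mean and spread of the plate; one replicate is shown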
Numbers without * were called inactive; . = no result given.

SMILES | AID504770 | CapD inh
Cc1c(C(=O)N(C)Cc2ccccc2)sc2ncnc(N3CCN(c4ccccn4)CC3)c12 | . | -0.2
Cc1cc(C)n(N)c(=O)c1C(=O)O | 1.2 | 0.4
Cc1ccc2c(c1)c(-c1ccccc1)c(-c1ccccc1)n2CC(O)Cn1nc(C)cc1C (centres undefined) | . | 21
CNCC(=O)N1CCN(C)CC1 | -0.75 | .
C=CCn1c(SCC(=O)NCCCN2CCOCC2)nnc1-c1sc2ccccc2c1Cl | 0.35 | -0.02
CNc1nnc(C2=NOC(CNc3ncc(C(F)(F)F)cc3Cl)C2)s1 (centres undefined) | . | 0.54
Nc1sc2c(c1C(=O)NC1CCS(=O)(=O)C1)CCCC2 (centres undefined) | 0.15 | .
O=c1cc(Nc2ccc3c(c2)OCCO3)[nH]c(=O)n1-c1ccc(Cl)cc1 | 0.05 | -0.43
CCOC(=O)c1cccc(N2Cc3ccncc3C2=O)c1 | -0.05 | 0.12
CC(C)NC(=O)CCn1c(=O)c2cccn2c2cccnc21 | 0 | 11
CN1CCc2c(OCC(=O)NC3CCCCC3)cccc2C1=O | -0.45 | 0.31
COC(=O)C1=c2s/c(=C/c3cccc(OC)c3)c(=O)n2C(N)=C(C#N)C1c1cccc(OC)c1 (centres undefined) | . | -0.27
CN(CC(=O)Nc1ccc(Cl)cc1)S(=O)(=O)CCN1C(=O)NC2(CCCC2)C1=O | -0.85 | .
O=C(NCCc1ccccc1)Nc1cnc2ccccn2c1=O | -0.55 | 6.4
CCN(CC)S(=O)(=O)c1ccc(C(=O)OCCN2C(=O)c3cccc4c(N5CCCCC5)ccc(c34)C2=O)cc1 | . | -0.21
CCN(c1ccc(OC)cc1)S(=O)(=O)c1ccc2c(c1)CC(C)N2C(=O)C1CC1 (centres undefined) | 0.9 | -0.04
COC(=O)c1cc(OC)c(OC)cc1NS(=O)(=O)c1ccc(C)cc1 | . | 0.33
CCC(CC)NC(=O)c1ccc2c(c1)OCO2 | 0 | 0.08
Cc1ccc(C2CC(c3cccs3)n3ncnc3N2)cc1 (centres undefined) | . | -0.03
CCOC(=O)C1=C(C(=O)OCC)SC(=C2C(=S)C(C)(C)N(C(C)=O)c3cc(C)ccc32)S1 | . | -0.66

The final 3 records of the part before lead into the next:
SMILES | AID504770 | CapD inh
CCC(CC)NC(=O)c1ccc2c(c1)OCO2 | 0 | 0.08
Cc1ccc(C2CC(c3cccs3)n3ncnc3N2)cc1 (centres undefined) | . | -0.03
CCOC(=O)C1=C(C(=O)OCC)SC(=C2C(=S)C(C)(C)N(C(C)=O)c3cc(C)ccc32)S1 | . | -0.66
CCC(Sc1nc(=O)cc(N)n1-c1ccccc1)C(=O)Nc1ccc(Cl)cn1 (centres undefined) | -0.15 | 2.7
O=C(CN1CCOCC1)NC12CC3CC(CC(C3)C1)C2 | -1.3 | .
CCn1c(=NC(=O)c2cccc(N3C(=O)CCC3=O)c2)sc2c(C)ccc(OC)c21 | -1.9 | .
COc1cc(OC)c(OC)cc1/C=C1\N=C(c2cc([N+](=O)[O-])ccc2OC)OC1=O | . | -0.48
CCOc1ccc(C2C(N3C(=O)c4ccc([N+](=O)[O-])cc4C3=O)C(=O)N2c2ccc(C)c(F)c2)cc1 (centres undefined) | . | -0.37
O=C(CSc1nc2ccccc2s1)Nc1ccc(Cl)cc1[N+](=O)[O-] | . | -0.37
CN1C(=O)/C(=C\N2CCCCC2)C(=O)NC1=S | -0.7 | -0.97
CC(=O)Nc1cc(Br)c2c(c1)OCCO2 | -0.2 | 0.1
CN(C(=O)c1cnc(N2CCN(c3ncccn3)CC2)c2ccccc12)c1ccc(Cl)cc1 | 1.7 | 0.8
NC(=O)C1CCN(C(=O)Cc2ccc(Cl)cc2)CC1 | 0.2 | .
O=C(CSc1ccccc1C(=O)O)Nc1ccccc1OC(F)F | -0.05 | .
CC(C)(C)c1csc(-c2sccc2CS(=O)(=O)c2ccc(Cl)cc2)n1 | -1.5 | 65
CC(C)C(NC(=O)CSc1ccc(Cl)cc1)C(=O)O (centres undefined) | 0.75 | .
S=C(NCc1ccccc1)N1CCN(Cc2ccc3c(c2)OCO3)CC1 | -0.25 | -0.045
COc1ccc(/C=N/N=C2\NC(=O)C(CC(=O)Nc3ccccc3)S2)cc1 (centres undefined) | 0.15 | .
O=C(/C=C/c1ccco1)NCCC1=CCCCC1 | 0.85 | -0.18
COC(=O)/C(=C(/O)CSc1nnnn1C)c1nc2ccccc2[nH]1 | -0.95 | .
CCCNC(=O)C1CCCN(S(=O)(=O)N2CCC3(CC2)OCCO3)C1 (centres undefined) | -0.8 | -0.58
O=C(Cn1c(Cc2ccccc2)nc2sc3c(c2c1=O)CCCC3)Nc1ccc(Oc2ccccc2)cc1 | . | 0.14
CCOC(=O)C1CCN(CC(O)COc2ccc3ccccc3c2)CC1 (centres undefined) | -0.55 | .
CC12CC3(C)CC(O)(C1)CC(C(=O)c1ccccc1)(C2)C3 | 0.3 | 0.23
O=C1Nc2c(S(=O)(=O)NCCO)cc(S(=O)(=O)NCCO)c3cccc1c23 | . | 32
CCSc1nnc(NC(=O)c2ccc(=O)n(C)n2)s1 | 0.4 | .
NNC(=O)CSc1ccccc1F | 0.4 | .
CCC1=C(C(=O)OC)C(c2ccc(Cl)cc2)n2ncnc2N1 (centres undefined) | -0.2 | .
Cc1ccc(SCCNC(=O)C(C)C)cc1 | -0.3 | 0.15
c1ccc(COCCn2cc(-c3ccc4ccccc4n3)cn2)cc1 | . | 16
c1ccc(-c2nc3cc4ccccc4cc3nc2-c2ccccc2)cc1 | . | -0.2
O=C(SCc1nc2ccccc2[nH]1)c1ccc(-c2ccccc2)cc1 | -0.2 | 0.11
N/C(=N/S(=O)(=O)Cc1ccccc1)N1CCOCC1 | 0.45 | -0.22
Cc1ccc(N2C(=N)S/C(=C\c3ccc(-c4ccc(F)cc4)o3)C2=O)cc1C | -0.65 | 1.2
O=C(CN1C(=O)/C(=C2\SC(=S)N(C3CCS(=O)(=O)C3)C2=O)c2ccccc21)Nc1ccc(F)cc1 (centres undefined) | . | -0.22
COc1ccc(C2CC(=O)c3cnc(NC(C)=O)nc3C2)cc1OC (centres undefined) | -0.3 | .
CC1(c2ccccc2)COC2(OC1)C(=O)N(CN1CCC(Cc3ccccc3)CC1)c1ccccc12 (centres undefined) | . | -1.7
CC(=O)N=C1SC2CS(=O)(=O)CC2N1Cc1ccccc1 (centres undefined) | -0.45 | -0.53
CC(=Nc1cccc(N2CCCC2=O)c1)C1=C(O)CC2(CCCCC2)CC1=O | 0.05 | .
CCNc1cc(Nc2ccc(Br)cc2Br)c([N+](=O)[O-])c2nonc12 | . | -0.21
O=C(c1c[nH]c2ccc(S(=O)(=O)Nc3ccccc3F)cc2c1=O)N1CCCC1 | -0.1 | -0.22
COc1ccc(C2OC(=O)C(C)=C(O)C2(C)C)cc1OC (centres undefined) | 0.1 | 0.12
COc1cccc(OC)c1C(=O)N=c1sc2ccccc2n1C | 1.2 | -1
CCC1(CC)NC(=S)N(c2ccc(C)cc2)N1 | . | -0.015
Cc1ccc(C)c(CN(C2=NC3CS(=O)(=O)CC3S2)c2cccc(Cl)c2)c1 (centres undefined) | -0.35 | 0.27
Cc1ccc(CCNC(=O)C2CCCN(S(=O)(=O)c3cccs3)C2)cc1 (centres undefined) | 0 | 0.17
COC(=O)C1=CN(Cc2ccc(OC)cc2)C=C(C(=O)OC)C1c1cc(OC)c(OC)cc1OC | . | 3.7
CC(C)=CC(=O)Nc1nnc(Cc2ccccc2)s1 | -1 | .
C=CCNC(=O)C1CC1(c1ccccc1)c1ccccc1 (centres undefined) | -1.3 | 0.16
C/C(=N\NC(=O)C1CC1)c1ccc(OC(F)F)cc1OC(F)F | 0.8 | .
c1ccc(-c2[nH]ncc2-c2cnccn2)cc1 | . | -0.62
Cc1ccc(-c2nn(-c3ccccc3)cc2/C=C/C(=O)OCC(=O)Nc2ccc3[nH]c(=O)[nH]c3c2)o1 | -0.4 | .
COc1ccc(Nc2cc(C(=O)NCc3ccco3)c3ccccc3n2)cc1 | -0.65 | -1.7
O=C(NCCCN1CCN(CCCNC(=O)c2ccc(F)cc2)CC1)c1ccc(F)cc1 | -0.3 | -0.33
Cc1c(C(=O)NCCCN2CCOCC2)oc2ccc3c(c12)C(=O)CC1(CCCCC1)O3 | -1.2 | 2.4
CC(C)(C)Cc1nc2ccccc2[nH]1 | 1.1 | .
Brc1ccc(Sc2cc3ccccc3nc2-c2ccccc2)cc1 | . | 2.7
C=CCN1C(=O)C(C(=O)O)C(=O)c2ccccc21 (centres undefined) | -0.1 | .
COC(=O)c1cc(S(=O)(=O)NC2CCN(Cc3ccccc3)CC2)c[nH]1 | 1.3 | -1
CCc1ccc(CNCC2CCCO2)cc1 (centres undefined) | -0.6 | -0.45
CN(C)S(=O)(=O)Oc1ccsc1C(=O)Nc1cccc(Cl)c1Cl | . | -0.15
O=S(=O)(CS(=O)(=O)c1ccc(Cl)cc1)c1ccc(Cl)cc1 | -0.85 | 0.085
O=c1c2ccccc2[nH]c(=S)n1Nc1ccccc1 | -0.95 | 1.6
(continued)
SMILES | AID504770 | CapD inh
Cc1nn(CCC#N)c2c1P(=O)(c1ccccc1)/C(=C1\N(C)c3ccccc3C1(C)C)C=N2 (centres undefined) | 0.2 | .
O=C1c2cccc3cc([N+](=O)[O-])cc(c23)C(=O)N1Cc1ccccc1 | . | -0.24
COc1ccc(N2C(=O)/C(=C\c3cc(Br)c(OC)c(OC)c3)C(=O)NC2=S)cc1 | . | -0.6
CCOC(=O)c1ccc(NC(=O)C2C3CCCCC32)cc1 (centres undefined) | -0.3 | -0.12
COC(=O)CSC(=S)N1CCCC1 | 0.25 | .
COc1cc(-c2nc3ccccc3c(=O)n2NC(=O)c2cccc(Cl)c2)cc(OC)c1OC | . | -0.41
CCCC(=O)Oc1ccc(C(=O)OC)cc1 | 0.6 | -0.22
NS(=O)(=O)c1ccc(CCNC(=O)CN2CCCCC2)cc1 | -0.05 | .
N#Cc1c(C(F)(F)F)cc(-c2cccs2)nc1OCC(=O)c1ccc(Cl)cc1 | . | 76
CN(C)C(=O)c1cn(-c2ccccc2)nc1-c1cccnc1 | 0.3 | 0.75
O=c1c(Cc2c(F)cccc2Cl)c(O)ccn1CCc1c[nH]c2ccccc12 | . | -0.51
C=CCn1c(SCc2nnc(-c3ccccc3)o2)nnc1C(O)c1ccccc1 (centres undefined) | -0.5 | -0.16
CC(C)n1nnc2cc(C(=O)Nc3ccc(Cl)cc3)ccc21 | . | 0.03
CC(C)(C)c1ccc(Oc2c([N+](=O)[O-])cc(C(F)(F)F)cc2[N+](=O)[O-])cc1 | . | -1.1
O=C(NCc1ccccn1)c1ccc(-n2cc(-c3ccncc3)cn2)cc1 | . | 9.9
O=C(/C=C1/Sc2ccccc2N(Cc2ccc(F)cc2)C1=O)NCc1ccccc1 | -0.65 | -0.12
CCOc1ccccc1NC(=O)CSc1nc2c(oc3ccccc32)c(=O)n1CCOC | 1.7 | 50
CCN(Cc1ccccc1)C(=O)CSc1nc2ncccc2[nH]1 | -1.4 | 1.3
OC1(c2ccccc2)C[N+]2=C(CCCCC2)N1c1ccc(Br)cc1 (centres undefined) | . | 0.45
COc1ccc(C2C(C(=O)N(C)c3ccc(C(C)C)cc3)c3ccccc3C(=O)N2C)cc1 (centres undefined) | -0.45 | 0.18

A second format for some results above:
Molecule: O=C(/C=C1/Sc2ccccc2N(Cc2ccc(F)cc2)C1=O)NCc1ccccc1
  AID504770: -0.65
  CapD inh: -0.12
Molecule: CCCC(=O)Oc1ccc(C(=O)OC)cc1
  AID504770: 0.6
  CapD inh: -0.22
Molecule: C=CCn1c(SCc2nnc(-c3ccccc3)o2)nnc1C(O)c1ccccc1 (centres undefined)
  AID504770: -0.5
  CapD inh: -0.16
Molecule: CN(C)C(=O)c1cn(-c2ccccc2)nc1-c1cccnc1
  AID504770: 0.3
  CapD inh: 0.75

Next section
SMILES | AID504770 | CapD inh
CCOc1cccc(C(=O)NNC(=O)OCc2cccc(OCc3ccccc3)c2)c1 | . | -0.56
CCOC(=O)N1CCC(NCCNC(=O)c2ccccc2Cl)CC1 | -0.15 | .
CCOC(=O)Nc1cccc(C(=O)O)c1 | 0.2 | .
CCOC(=O)c1c(SC)n[nH]c1N | -0.75 | 0.41
CC(=O)NCc1ccc(-c2csc(CC(=O)Nc3ccc(C)cc3C)n2)o1 | -0.4 | .
COc1ccc(NC(=O)/C(=C/c2ccc3c(c2)OCO3)NC(=O)c2ccc(Br)cc2)cc1 | . | -0.12
C#CCNS(=O)(=O)c1ccc(C#N)cc1 | . | 0.15
COC(=O)c1cc(NC(=O)c2cc3nc(-c4ccc(OC)cc4)cc(C(F)(F)F)n3n2)cc(C(=O)OC)c1 | . | 1.1
Cc1cc(C(=O)O)oc(=O)c1 | . | -0.65
FC(F)(F)c1cnc(-n2nccc2-c2sccc2Cl)c(Cl)c1 | . | -0.53
COc1cnc(-c2ccccc2)nc1Oc1ccc(Cl)cc1C | -0.15 | -0.29
O=C1CCCC2=C1C(c1cccs1)n1ncnc1N2 (centres undefined) | 0 | 0.47
CN(C(=O)c1sccc1Oc1ccccc1[N+](=O)[O-])c1ccccc1 | . | -0.18
N#CCCN(N)C1=NS(=O)(=O)c2ccccc21 | 2 | -0.095
CCOC(=O)CSc1nc2sc(C(=O)OCC)c(C)c2c(=O)n1Cc1ccccc1 | . | 8.4
O=C(COC(=O)C12CC3CC(CC(O)(C3)C1)C2)c1ccc(Cl)cc1 | -1.5 | .
COc1ccc(CN2C(=O)C(F)(F)C2c2ccco2)cc1 (centres undefined) | -0.85 | -0.49

This is a subset (hit frequency here may not be typical).
